# Source: PubChem BioAssay
# PD-1 reversal – reversal of PD-1 mediated T-cell inhibition; primary human CD4 T cells, PD-L1 beads, CellTiter-Glo 96 h; activation, % (no concentration beside the values); 29,000 tested, under 10 active;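 active = replicate mean of 50% or more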;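 note: 0% = median vehicle wells and 100% = positive control; 100 nL library stock added to about 50 µL; numbers are from one replicate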
# Hedgehog inh – blocks Sonic Hedgehog signaling. Shh-LIGHT2 Gli-luciferase reporter, 30 h. inhibition, % (test concentration not listed). hit rate 2.1% among 22,000;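 active = replicate mean of 65% or more; inconclusive = mean lower but half the replicates past it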;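 note: pathway switched on by Shh-conditioned medium diluted 1 in 25 in low serum; 100 nL library stock added to about 40 µL; 0% = median of neutral wells and 100% = positive control level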
# YB-1 expr inh – YB-1 expression inhibition; U2OS, qRT-PCR YB-1 vs CDIP delta delta Cp, 16 h; stronger effect = higher value; zero = DMSO, each unit about twofold; delta delta Cp (YB-1 minus CDIP) (no concentration beside the values); hit rate 0.37% among 30,000; AID 434959;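 active = delta delta Cp rounded down to an integer at or above 3, about 3 SD of DMSO wells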;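 note: higher means less YB-1 transcript or more CDIP transcript relative to DMSO; stock transfer was 100 nL into about 100 µL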
# MITF inh – MITF inhibition; hit rate 0.28% among 37,000; inhibition, % (test concentration not listed); TRPM1 promoter luciferase, luminescence, 24 h;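 active = most replicates at 85% or more, or half of them and the mean; inconclusive = half reach 85% but not the mean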;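 note: human melanocyte line stably carrying TRPM1 promoter luciferase reporter; 0% = vehicle wells and 100% = a positive control; the first replicate is given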
# * = called active by the depositor; ? = inconclusive; / = no result given. This is a subset, so the mix of outcomes need not match the whole.
SMILES	PD-1 reversal	Hedgehog inh	YB-1 expr inh	MITF inh
Cc1ccc(S(=O)(=O)Nc2cccc3c2O[C@@H](CN(C)C(=O)Nc2ccc(C(F)(F)F)cc2)[C@@H](C)CN([C@@H](C)CO)C3=O)cc1	-4.0	10	-0.21	45
C[C@@H]1CN([C@H](C)CO)C(=O)c2cccc(N(C)C)c2O[C@@H]1CN(C)C(=O)Nc1cccc2ccccc12	1.2	11	-0.019	2
COc1ccc(S(=O)(=O)Nc2ccc3c(c2)CC(=O)N([C@@H](C)CO)C[C@@H](C)[C@@H](CN(C)Cc2ccc4c(c2)OCO4)O3)cc1	2.0	13	0.23	8
CCN(CC)CCOc1ccc(/C(=C(/Cl)c2ccccc2)c2ccccc2)cc1	/	-18	0.36	5
O=C(CSc1nc2ccccc2o1)c1ccc2c(c1)OCCO2	0.5	/	/	-23
Cc1nnc(SCC(=O)Nc2cccc3ccccc23)s1	2.1	/	/	13
Cc1ccc(NC(=O)CSc2nnnn2-c2ccc(F)cc2)cc1C	-0.3	/	/	23
C[C@@H]1CN([C@@H](C)CO)C(=O)c2cccc(NC(=O)Nc3ccc(F)cc3)c2O[C@@H]1CN(C)C(=O)NC1CCCCC1	/	-84	-0.29	-2
Cc1ccc(NC(=O)CSc2nnnn2-c2cccc(C(=O)O)c2)cc1C	1.0	/	/	-7
C[C@H](CO)N1C[C@H](C)[C@H](CN(C)Cc2ccc(Oc3ccccc3)cc2)Oc2c(NC(=O)Nc3ccccc3)cccc2C1=O	-1.6	-64	0.33	-1
C[C@@H]1CCCCO[C@H](CN(C)Cc2ccc(Cl)c(Cl)c2)[C@@H](C)CN([C@H](C)CO)C(=O)c2cc(NS(=O)(=O)c3cccs3)ccc2O1	/	43	-0.21	22
CC(CNC1CCCCC1)OC(=O)c1ccccc1 (stereo unspecified)	/	-55	-0.27	11
C[C@H]1CN([C@@H](C)CO)C(=O)c2cccc(NC(=O)c3ccc(-c4nccs4)cc3)c2O[C@@H]1CN(C)S(=O)(=O)c1ccccc1	/	21	0.25	3
S=C(NC1CCCCC1)Sc1ccc(Cl)cc1	-1.5	36	-1	10
CC1(C)CC[C@]2(C(=O)O)CC[C@]3(C)C(=CCC4[C@@]5(C)C[C@@H](O)[C@H](O)[C@@](C)(CO)C5[C@H](O)C[C@]43C)[C@@H]2C1 (stereo partly specified)	/	-17	0.48	/
C[C@@H]1CN([C@H](C)CO)C(=O)Cc2cc(NC(=O)Cc3ccccc3)ccc2O[C@@H]1CN(C)S(=O)(=O)c1ccc(F)cc1	-1.8	8	-0.022	4
CSCCC(NC=O)C(=O)NC(Cc1ccccc1)C(=O)O (stereo unspecified)	/	-10	0.1	11
C[C@@H]1CN([C@@H](C)CO)C(=O)c2cc(NS(=O)(=O)c3ccc(F)cc3)ccc2O[C@@H]1CN(C)S(=O)(=O)c1cccs1	-0.6	8	0.26	14
Oc1ccc2c(c1O)OCC1c3cc4c(cc3OC21)OCO4 (stereo unspecified)	-2.9	29	0.46	-12
Cc1noc(C)c1S(=O)(=O)Nc1ccc2c(c1)CC(=O)N([C@@H](C)CO)C[C@@H](C)[C@@H](CN(C)C(=O)Nc1ccccc1)O2	-1.4	/	0.022	-3
C[C@@H]1CN([C@@H](C)CO)C(=O)c2cccc(NC(=O)C3CCOCC3)c2O[C@H]1CN(C)Cc1ccc2c(c1)OCO2	3.3	42	0.17	-5
O=C(CSc1nnc(-c2ccccc2)c(-c2ccccc2)n1)Nc1ccccc1	1.5	/	/	24
Cc1ccc(S(=O)(=O)Nc2ccc3c(c2)C(=O)N([C@@H](C)CO)C[C@H](C)[C@H](CN(C)S(=O)(=O)c2ccc(Cl)cc2)O3)cc1	-4.4	?	-0.27	41
C[C@@H]1CN([C@@H](C)CO)C(=O)Cc2cc(NS(=O)(=O)c3cccs3)ccc2O[C@@H]1CN(C)C(=O)Nc1cccc2ccccc12	-2.1	13	0.25	-5
COC(=O)C(C)Sc1nc(N2CCOCC2)nc(N2CCOCC2)n1 (stereo unspecified)	-2.8	/	/	-28
C[C@@H]1CN([C@H](C)CO)C(=O)c2cc(NC(=O)CCCN(C)C)ccc2O[C@@H]1CN(C)C	0.7	-10	0.33	-3
CC1=CCC2[C@](C)(CCC[C@]2(C)C(=O)O)[C@H]1CCc1ccoc1 (stereo partly specified)	0.9	5	-0.17	-5
C[C@@H]1CN([C@H](C)CO)C(=O)Cc2cc(NC(=O)Nc3ccc4c(c3)OCO4)ccc2O[C@H]1CN(C)Cc1ccc(C(=O)O)cc1	0.6	16	-0.058	-8
COc1ccc(NC(=O)Nc2cccc3c2O[C@H](CN(C)Cc2ccccc2)[C@@H](C)CN([C@H](C)CO)C3=O)cc1	-5.3	27	0.053	-3
COc1ccc(Cl)cc1NC(=O)C(C)NS(=O)(=O)c1ccc(Br)cc1 (stereo unspecified)	0.6	/	/	10
CC(C)(C)N1NC2(CCCCC2)NC1=S	0.4	-14	-0.075	-2
Cc1noc(C)c1S(=O)(=O)N(C)C[C@@H]1Oc2ccc(NC(=O)Nc3ccc(F)cc3)cc2CC(=O)N([C@H](C)CO)C[C@@H]1C	0.6	-41	-0.0059	1
C[C@@H]1CN([C@@H](C)CO)C(=O)c2cc(NC(=O)CCN3CCOCC3)ccc2O[C@@H]1CN(C)Cc1ccc(-c2ccccc2)cc1	/	/	0.2	-13
C[C@H](CO)N1C[C@H](C)[C@@H](CN(C)Cc2ccc(Cl)c(Cl)c2)Oc2ccc(NC(=O)CCN3CCOCC3)cc2C1=O	/	36	0.48	-1
Cc1noc(C)c1NC(=O)Nc1cccc2c1O[C@H](CN(C)Cc1ccncc1)[C@@H](C)CN([C@@H](C)CO)C2=O	/	-60	-0.031	-7
Cc1noc(C)c1NC(=O)Nc1cccc2c1O[C@@H](CN(C)Cc1ccc(Cl)c(Cl)c1)[C@H](C)CN([C@@H](C)CO)C2=O	-1.3	41	-0.2	0

# Overlap with the part before: 5 compounds, followed by the next part.
SMILES,PD-1 reversal,Hedgehog inh,YB-1 expr inh,MITF inh
Cc1noc(C)c1S(=O)(=O)N(C)C[C@@H]1Oc2ccc(NC(=O)Nc3ccc(F)cc3)cc2CC(=O)N([C@H](C)CO)C[C@@H]1C,0.6,-41,-0.0059,1
C[C@@H]1CN([C@@H](C)CO)C(=O)c2cc(NC(=O)CCN3CCOCC3)ccc2O[C@@H]1CN(C)Cc1ccc(-c2ccccc2)cc1,/,/,0.2,-13
C[C@H](CO)N1C[C@H](C)[C@@H](CN(C)Cc2ccc(Cl)c(Cl)c2)Oc2ccc(NC(=O)CCN3CCOCC3)cc2C1=O,/,36,0.48,-1
Cc1noc(C)c1NC(=O)Nc1cccc2c1O[C@H](CN(C)Cc1ccncc1)[C@@H](C)CN([C@@H](C)CO)C2=O,/,-60,-0.031,-7
Cc1noc(C)c1NC(=O)Nc1cccc2c1O[C@@H](CN(C)Cc1ccc(Cl)c(Cl)c1)[C@H](C)CN([C@@H](C)CO)C2=O,-1.3,41,-0.2,0
C[C@@H]1CCCCO[C@@H](CN(C)S(C)(=O)=O)[C@@H](C)CN([C@H](C)CO)C(=O)c2cc(NS(=O)(=O)c3ccc(Cl)cc3)ccc2O1,-0.5,4,0.39,-3
C[C@H](CO)N1C[C@H](C)[C@@H](CN(C)C(=O)Nc2ccc(C(F)(F)F)cc2)Oc2c(NC(=O)Nc3ccc4c(c3)OCO4)cccc2C1=O,-2.6,-18,0.069,-7
CC(C)NC(=O)Nc1cccc2c1O[C@H](CN(C)Cc1ccncc1)[C@H](C)CN([C@H](C)CO)C2=O,2.5,3,0.0094,-2
COC(=O)Cc1c(C)nc2nc(NCc3ccccc3)[nH]n2c1=O,1.0,/,/,18
Cc1ccc(S(=O)(=O)Nc2ccc3c(c2)C(=O)N([C@H](C)CO)C[C@@H](C)[C@@H](CN(C)Cc2ccncc2)O3)cc1,/,-85,-0.26,7
C[C@@H]1CN([C@H](C)CO)C(=O)c2cccc(NC(=O)Nc3ccc4c(c3)OCO4)c2O[C@@H]1CN(C)Cc1ccc(C(F)(F)F)cc1,-0.2,19,0.071,-19
C[C@@H]1CN([C@@H](C)CO)C(=O)c2cc(NC(=O)NC3CCCCC3)ccc2O[C@H]1CN(C)C(=O)Nc1cccc2ccccc12,/,19,0.035,8
C[C@H](CO)N1C[C@H](C)[C@@H](CN(C)C(=O)Nc2ccc(C(F)(F)F)cc2)Oc2c(NS(=O)(=O)c3ccc(F)cc3)cccc2C1=O,-0.3,1,-0.48,-5
COc1ccc(CN(C)C[C@@H]2Oc3ccc(NC(=O)CCN4CCOCC4)cc3CC(=O)N([C@H](C)CO)C[C@H]2C)cc1,/,9,0.2,-18
C[C@@H]1CN([C@H](C)CO)C(=O)c2cccc(NC(=O)c3nc4ccccc4s3)c2O[C@H]1CN(C)Cc1ccc(Oc2ccccc2)cc1,2.1,-33,-0.53,5
N[C@@H](CC(=O)N1CCn2c(nnc2C(F)(F)F)C1)Cc1cc(F)c(F)cc1F,/,8,0.4,7
CSc1sc(C(=O)O)c2c1S(=O)(=O)N(C)c1ccccc1-2,-0.3,/,-0.27,14
COc1ccc(NC(=O)N(C)C[C@H]2Oc3ccc(NS(=O)(=O)c4ccc(F)cc4)cc3C(=O)N([C@H](C)CO)C[C@H]2C)cc1,-0.9,/,0.049,1
C[C@@H]1CN([C@@H](C)CO)C(=O)c2cc(NS(=O)(=O)c3ccccc3)ccc2O[C@@H]1CN(C)C(=O)Nc1ccc(F)cc1,-2.5,/,0.12,-1
C[C@@H]1CCCCO[C@H](CN(C)C(=O)CCC(F)(F)F)[C@@H](C)CN([C@H](C)CO)C(=O)c2cc(NC(=O)Nc3ccccc3)ccc2O1,0.9,/,-0.15,-7
COc1ccccc1N(CC(=O)Nc1cccc([N+](=O)[O-])c1C)S(C)(=O)=O,-1.5,/,/,-14
CNC[C@H]1Oc2ccc(NS(=O)(=O)c3cn(C)cn3)cc2C(=O)N([C@H](C)CO)C[C@@H]1C,0.7,-24,0.36,-13
COc1ccc(S(=O)(=O)Nc2cccc3c2O[C@@H](CN(C)C(=O)Nc2ccc(F)cc2)[C@@H](C)CN([C@@H](C)CO)C3=O)cc1,-0.8,-3,0.32,-1
CCOC(=O)c1cnc(SCC(=O)Nc2ccccc2C)nc1N,-2.0,/,/,-6
C[C@@H]1CN([C@@H](C)CO)C(=O)c2cccc(NS(=O)(=O)c3cccs3)c2O[C@H]1CN(C)Cc1ccc(Oc2ccccc2)cc1,1.4,-23,0.065,-3
C[C@@H]1CN([C@@H](C)CO)C(=O)Cc2cc(NS(=O)(=O)c3ccc(F)cc3)ccc2O[C@@H]1CN(C)Cc1ccc(Oc2ccccc2)cc1,/,30,0.14,39
O=C(COc1ccc(Br)cc1Cl)NCc1cccnc1,0.4,/,/,-41
COc1ccc(S(=O)(=O)N(C)CC(=O)Nc2cccc(Cl)c2C)cc1C,-0.3,/,/,16
C[C@H](CO)N1C[C@H](C)[C@@H](CN(C)S(=O)(=O)c2ccc(Cl)cc2)Oc2ccc(NS(=O)(=O)c3cn(C)cn3)cc2C1=O,1.3,25,-0.089,-3
C[C@H]1CN([C@@H](C)CO)C(=O)c2cc(NC(=O)CCN3CCOCC3)ccc2O[C@H]1CN(C)S(=O)(=O)c1ccccc1,/,-56,-0.1,7
C[C@H]1CN([C@@H](C)CO)C(=O)Cc2cc(NS(=O)(=O)c3ccccc3)ccc2O[C@@H]1CN(C)S(=O)(=O)c1ccc(Cl)cc1,1.7,-19,-0.26,7
COc1ccc(NC(=O)Nc2ccc3c(c2)CC(=O)N([C@@H](C)CO)C[C@H](C)[C@@H](CN(C)S(=O)(=O)c2cn(C)cn2)O3)cc1,1.2,-13,0.031,-9
Cn1c(SCc2ccc(C(F)(F)F)cc2)nnc1-c1ccc(OCC(F)(F)F)nc1,0.2,74*,0.21,26
NNC(=O)CC12CC3CC(CC(C3)C1)C2,0.7,/,-0.22,17
C[C@H]1CN([C@@H](C)CO)C(=O)c2cccc(NS(C)(=O)=O)c2O[C@H]1CN(C)Cc1ccc(C(=O)O)cc1,/,7,0.83,-2
C[C@H](CO)N1C[C@H](C)[C@H](CN(C)Cc2ccc(-c3ccccc3)cc2)Oc2ccc(NC(=O)Nc3ccc(C(F)(F)F)cc3)cc2C1=O,-4.2,/,-0.99,4
C[C@H](CO)N1C[C@H](C)[C@@H](CN(C)S(=O)(=O)c2ccc(Cl)cc2)Oc2c(NC(=O)NC3CCCCC3)cccc2C1=O,-0.9,-29,0.3,11
O=Nc1c(-c2c(O)[nH]c3ccc(S(=O)(=O)O)cc23)[nH]c2ccccc12,2.1,-63,-0.18,-8
Cc1ccc(S(=O)(=O)NCCC(=O)Oc2ccc3c(=O)c(-c4ccc(F)cc4)coc3c2)cc1,1.7,/,/,-45
N#C/C(=C/c1ccc(O)c(O)c1)C(=O)OC/C=C/c1ccccc1,/,?,-0.12,-10
O=C(COc1cccc(-c2cnc3ccccc3n2)c1)c1ccccc1,1.1,/,/,-33
